Compound activity deposited in PubChem BioAssay by several laboratories.
RanGTP-Impb inh: inhibitors of RanGTP-importin-beta interaction, primary screen, biochemical, FRET, CFP-Ran, YFP-importin-beta, homogeneous; cell-free CFP-Ran/YFP-importin-beta FRET ratio; inhibition, % (no concentration beside the values); actives 1.1% (n = 300,000);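 active means most replicates above 15%; inconclusive means exactly half above 15%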;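 further: 0% = DMSO wells and 100% = Ran loaded with GDP instead of GTP; wells of about 40 µL received 100 nL stock; the first replicate is given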
Vif A3G: inhibitors of Vif binding to APOBEC3G peptide, primary screen, biochemical, TR-FRET, GST-Vif 1-94, biotin-A3G peptide, dose response retest (AID 1117319) | TR-FRET GST-Vif / biotin-A3G peptide binding; higher % means a stronger effect; test concentration not given here; strong numbers were not always called active | inhibition, %; hits with a dose series show IC50 in µM | actives 0.57% (n = 260,000);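 active means above the screen mean plus three standard deviations and confirmed in dose response; inconclusive means results disagree or hit not tested in dose response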;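 further: Vif residues 1-94 fused to GST binding biotinylated APOBEC3G peptide 110-148; 0% = full assay without inhibitor and 100% = GST in place of GST-Vif; retest series ran down from 100 µM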
HNF4A DNA FP: change in binding of human HNF4A to DNA, primary screen, biochemical, fluorescence polarization, FITC-DNA; AID 1224865, 2016; 1 h; Hepatocyte nuclear factor 4-alpha (Homo sapiens), P41235; activity change, % at 10 µM; actives 0.3% (n = 360,000); in the data active means activity change above about 30%, passing the limit was not always enough;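 further: controls were the assay level and a saturating level of protein; the project sought stronger binding though the title names inhibitors; some compounds called inactive have numbers as strong as hits; positive values seem to mean higher polarization but the record does not say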
Target sequence (P41235 whole entry, looked up): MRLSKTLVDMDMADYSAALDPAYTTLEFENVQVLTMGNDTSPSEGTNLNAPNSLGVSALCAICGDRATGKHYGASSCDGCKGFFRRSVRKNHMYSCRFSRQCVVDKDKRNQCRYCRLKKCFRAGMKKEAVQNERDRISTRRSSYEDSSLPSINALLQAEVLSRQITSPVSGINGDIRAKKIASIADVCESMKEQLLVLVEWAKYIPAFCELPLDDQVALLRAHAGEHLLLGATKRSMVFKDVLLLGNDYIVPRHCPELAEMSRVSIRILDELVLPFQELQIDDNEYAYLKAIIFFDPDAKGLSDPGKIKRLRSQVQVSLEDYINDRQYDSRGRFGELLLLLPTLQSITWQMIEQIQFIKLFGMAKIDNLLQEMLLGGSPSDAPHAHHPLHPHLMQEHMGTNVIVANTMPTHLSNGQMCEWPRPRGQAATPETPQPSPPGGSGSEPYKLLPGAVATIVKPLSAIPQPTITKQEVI
E coli growth: E. coli growth inhibition, primary screen, OD600 | OD600 absorbance (test concentration not listed) | Escherichia coli growth, 23 h; stronger effect = lower value | actives 0.21% (n = 330,000);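 active means OD600 absorbance below the run mean of sample wells minus 3.6 SD, in any replicate, cut at about 0.56 in these data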;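 further: stock transfer was 300 nL into about 60 µL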
AF4-AF9 inh: inhibitors of AF4 peptide binding to AF9, primary screen, biochemical, AlphaScreen, biotin-AF4 peptide, FLAG-AF9, single point | inhibition, % at 10 µM | actives 0.47% (n = 350,000) | AID 651704, 2012;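 active means every replicate reaching a set inhibition limit, whatever the replicate mean, cut at about 25% in these data; inconclusive means mean inhibition reaches that limit but some replicates miss it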;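 further: 0% = plate neutral control median and 100% = total signal loss; the record names both 10 and 1 µM as test concentration; the first replicate is given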
FGF22 binding: binders of human FGF22 protein, primary screen, FGF22 synaptogenesis inhibitor project, biophysical, thermal shift, single point; Fibroblast growth factor 22 (Homo sapiens), Q9HCT0; recombinant FGF22 thermal shift, SYPRO orange fluorescence; percent of sucrose octasulfate shift, DMSO zero; calls only at 9.99 µM; AID 651658, 2012; actives 1.5% (n = 340,000);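 active means melting point raised past a set limit in the mean and every replicate; inconclusive means no clear call; three in four hits are not shown here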
Target sequence (Q9HCT0 whole entry, looked up): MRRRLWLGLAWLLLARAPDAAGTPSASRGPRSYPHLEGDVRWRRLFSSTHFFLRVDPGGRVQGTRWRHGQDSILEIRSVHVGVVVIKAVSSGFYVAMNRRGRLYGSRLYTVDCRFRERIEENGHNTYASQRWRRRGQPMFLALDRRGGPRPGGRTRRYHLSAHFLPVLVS
UCH37 DUB inh: inhibitors of human UCH37 deubiquitinase, primary screen, biochemical, Ub-AMC cleavage, fluorescence. AID 588478, 2011. Ubiquitin carboxyl-terminal hydrolase isozyme L5 (Homo sapiens), Q9Y5K5. purified proteasome/UCH37. actives 0.33% (n = 330,000). inhibition, % (test concentration not listed);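 active means mean of two replicates above 20%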;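 further: 0% = compound-free wells with enzyme and 100% = wells lacking proteasome; stock transfer was 100 nL into about 20 µL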
Target sequence (Q9Y5K5 whole entry, looked up): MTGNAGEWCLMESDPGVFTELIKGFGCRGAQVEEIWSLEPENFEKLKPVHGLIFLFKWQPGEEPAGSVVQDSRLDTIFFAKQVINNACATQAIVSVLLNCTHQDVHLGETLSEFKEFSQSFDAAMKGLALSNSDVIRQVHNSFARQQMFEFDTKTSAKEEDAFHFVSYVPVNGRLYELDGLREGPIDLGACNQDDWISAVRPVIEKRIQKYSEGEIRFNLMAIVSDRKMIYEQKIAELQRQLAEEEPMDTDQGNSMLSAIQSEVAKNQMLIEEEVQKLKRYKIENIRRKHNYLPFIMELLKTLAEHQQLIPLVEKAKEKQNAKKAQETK
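Test system – human UCH37 enzyme supplied as purified proteasome complex · Incubation – 30 min preincubation with enzyme, 25 min cleavage at room temperature · Detection – AMC fluorescence from Ub-AMC cleavage, excitation 355 nm, emission 460 nm · Benchmarks – no-proteasome wells (full inhibition) and compound-free wells (no inhibition)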
Active calls of the source: *; i = inactive; ? = inconclusive; · = not tested or not shown; & = joins results of further samples. Some of the compounds tested; rates above refer to the full screens.

SMILES	RanGTP-Impb inh	Vif A3G	HNF4A DNA FP	E coli growth	AF4-AF9 inh	FGF22 binding	UCH37 DUB inh
Cc1cccc(C)c1OCC(O)CNC(C)C (stereo not drawn)	2.3	15%	-1.5	0.73	·	·	2.0
COc1ccc(OC)c(CNCc2ccc3c(c2)OCO3)c1	-2.2	-2%	-0.7	0.65	1.2	i	0.1
O=C(Nc1cccc([N+](=O)[O-])c1)Nc1cccc([N+](=O)[O-])c1	-4.7	·	0.1	0.64	2.9	i	6.1
O=C(Nc1nc(SCc2ccc(F)cc2)ns1)c1ccco1	-1.9	0%&31%	2.4	0.64	·	·	4.3
Cc1oc2cc3oc(=O)c(CCC(=O)NCCCn4ccnc4)c(C)c3cc2c1C	?	·	5.8	0.69	3.3	i	-32
COc1ccc(S(=O)(=O)N(CC(=O)NCc2ccccn2)c2ccc(Cl)cc2)cc1	-4.4	·	-6.4	0.68	-0.4	i	1.6
Cn1ncc2c(NNC(=O)Cc3ccccc3)ncnc21	-1.4	-2%	-0.5	0.67	·	·	5.0
COc1ccc2occ(C(=O)c3ccc(N)cc3)c2c1	1.7	·	0.7	0.65	1.0	i	-1.3
COc1ccc(/C=C/C(=O)NCC(=O)N=Nc2c(O)[nH]c3ccc([N+](=O)[O-])cc23)cc1	3.7	·	-1.2	0.67	-1.3	i	8.5
CCOC(=O)c1cc(-c2cccnc2)nn1-c1ccccc1	6.3	·	2.3	0.66	1.4	·	-0.1
Cc1ccc(C)c(Cn2c(CN(C)Cc3ccccc3)nc3c2c(=O)n(C)c(=O)n3C)c1	3.5	-1%	0.9	0.71	11	i	1.6
C/C(CC(=O)NC(C)c1ccccc1)=N\NC(N)=S (stereo not drawn)	3.5	?	0.3	·	-36	i	·
COCCCn1cnc2oc3nc4ccccc4nc3c2c1=O	-1.5	29%	22	0.68	·	·	-111
CCN(CC)S(=O)(=O)c1cccc(C(=O)N[C@H](C(=O)NCc2ccccc2F)C(C)C)c1	-0.5	3%	-0.5	0.62	·	·	0.8
CC(=O)Nc1ccc(NC(=O)C(C)OC(=O)CSc2ccc(Br)cc2C)cc1 (stereo not drawn)	-0.8	·	1.5	0.66	2.3	i	-0.4
C(=C\c1ccccn1)/c1cccnc1	?	22%	-3.1	·	1.2	i	·
COc1ccccc1NC(=O)COC(=O)C1=NN(c2ccccc2)C(=O)CC1	·	-2%	0.5	0.7	-1.6	i	0.8
O=C(CCNC(=O)c1ccco1)NCCc1c[nH]c2ccccc12	·	-5%	5.6	0.68	-0.1	i	2.1
COCCn1c(SCC(=O)Nc2cccnc2Cl)nc2ccccc2c1=O	·	·	0.6	0.69	-0.7	i	4.1
CN1CCN(CCCNC(=O)CCC(=O)N2CCOc3ccccc32)CC1	1.3	·	-0.4	0.7	-6.0	i	1.1
Cc1nnc(NC(=O)C2CC(=O)N(c3ccc4c(c3)OCCO4)C2)s1 (stereo not drawn)	·	·	-1.7	0.67	0.5	i	1.6
O=C(N=C1N=C2C=CC=CN2Cc2ccccc21)c1ccc(S(=O)(=O)N2CCOCC2)cc1	2.0	23%	4.3	0.71	-2.7	i	0.7
c1csc(CCCN2CCCCC2)c1	·	-4%	2.6	0.67	-1.2	i	3.3
COC(=O)[C@H](C)NC(=O)c1cc2c(cn1)[nH]c1ccccc12	1.7	-5%	-1.9	·	0.7	i	·
CCc1ccc(OCC(O)CN2CCN(c3ccccc3)CC2)cc1 (stereo not drawn)	1.1	-1%&1%	4.4&3.6	0.62&0.65	2.9	i	4.5&2.5
Cc1c(C(=O)N2CCCCCC2)oc2ccccc12	-2.6	31%	4.2	0.68	·	·	0.0
CCCn1c(O)c(N=NC(=O)CNC(=O)c2ccncc2)c2ccccc21	4.5	·	-1.4	0.67	4.3	i	7.9
COc1ccccc1CNC(=O)CCC(=O)n1ncc2cc(C)ccc21	6.4	·	1.7	0.7	3.9	i	1.9
CCCn1c(SCC(=O)c2c[nH]c3ccccc23)nnc1-c1ccncc1	2.8	·	3.3	0.7	·	·	5.5
CCOc1ccc(C2c3c(oc4cc(C)c(C)cc4c3=O)C(=O)N2CCCN(C)C)cc1OC (stereo not drawn)	-1.4	?	4.2	0.73	4.0	i	4.9

Complete entries, looked up by structure:
COc1ccccc1CNC(=O)CCC(=O)n1ncc2cc(C)ccc21 as listed: RanGTP-Impb inh = 6.4; Vif A3G = ·; HNF4A DNA FP = 1.7; E coli growth = 0.7; AF4-AF9 inh = 3.9; FGF22 binding = i; UCH37 DUB inh = 1.9
CCOc1ccc(C2c3c(oc4cc(C)c(C)cc4c3=O)C(=O)N2CCCN(C)C)cc1OC (stereo not drawn) as listed: RanGTP-Impb inh = -1.4; Vif A3G = ?; HNF4A DNA FP = 4.2; E coli growth = 0.73; AF4-AF9 inh = 4.0; FGF22 binding = i; UCH37 DUB inh = 4.9
CCCn1c(SCC(=O)c2c[nH]c3ccccc23)nnc1-c1ccncc1 as listed: RanGTP-Impb inh = 2.8; Vif A3G = ·; HNF4A DNA FP = 3.3; E coli growth = 0.7; AF4-AF9 inh = ·; FGF22 binding = ·; UCH37 DUB inh = 5.5

Remaining list, next part
SMILES	RanGTP-Impb inh	Vif A3G	HNF4A DNA FP	E coli growth	AF4-AF9 inh	FGF22 binding	UCH37 DUB inh
Cc1cc(NC(=O)c2ccc([N+](=O)[O-])cc2Cl)no1	-0.9	1%	-1.0	0.62	-4.0	i	1.6
CSc1ccc(CN2CCC(CO)(CCOc3ccccc3)CC2)cc1	1.0	·	2.0	0.68	3.2	i	4.3
COc1cccc(C2C(C(=O)Nc3cccnc3)=C(C)Nc3nnnn32)c1OC (stereo not drawn)	-2.0	17%	0.1	0.66	·	·	1.0
Cc1csc(NC(=O)[C@@H]2CCCN2C(=O)c2cccs2)n1	4.9	-1%	0.2	0.67	-0.9	·	-0.4
O=C(CCc1c[nH]c2ccccc12)NC(Cc1c[nH]c2ccccc12)C(=O)O (stereo not drawn)	2.6	-3%	0.1	0.61	-2.4	i	5.6
O=C(NN1C(=O)c2ccccc2NC1c1ccco1)c1ccc(Br)cc1 (stereo not drawn)	-1.9	-2%	-2.7	0.7	-0.2	i	-24
Nc1nc(=S)c2ncn([C@@H]3O[C@H](CO)[C@@H](O)[C@H]3O)c2[nH]1	·	·	3.1	·	-1.3	i	1.1
COC(=O)C[C@H]1CC[C@@H](NC(=O)Nc2ccc3c(c2)OCO3)[C@@H](CO)O1	·	·	-1.9	·	1.0	·	·
COc1ccc(N2CCN(C(=O)c3cccc(NS(=O)(=O)c4cccc(F)c4)c3)CC2)cc1	-0.3	·	3.9	0.69	-0.9	i	0.6
O=S(=O)(Cc1cc(Cl)nc(-c2ccncc2)n1)c1ccccc1	7.5	16%	0.3	0.69	-0.1	i	3.8
CN(C)C(=O)Cn1cnc2c(cnn2-c2ccc(F)cc2)c1=O	-4.0	·	3.2	0.68	0.7	i	-1.6
CN(C)/C=N/c1nc(-c2ccc3c(c2)OCO3)cs1	?	1%	0.2	·	2.1	·	·
CC1CC(NC(=O)C2(C)CC2(Cl)Cl)CC(C)(C)C1 (stereo not drawn)	-0.1	2%	2.8	0.71	·	·	4.4
Cc1ccc(Cn2ncn(-c3ccccc3)c2=O)cc1	-0.4	-11%	3.6	0.69	-1.1	i	-0.4
CCOC(=O)c1c(NC(=O)C(C)NCc2ccco2)sc2c1CCC(C)C2 (stereo not drawn)	-1.6	9%	1.2	0.74	·	·	-2.3
O=C(Nc1ccccc1)N(Cc1cccnc1)Cc1ccco1	5.5	3%	0.0	0.67	·	·	3.5
COc1ccc(NC(=O)CN2C(=O)NC3(CCCC3)C2=O)c(OC)c1	0.4	·	-0.1	0.65	2.1	i	-2.0
CCCS(=O)(=O)NC(=O)C1(C)CCN(C(=O)c2ccccc2F)C1 (stereo not drawn)	·	·	-2.6	·	1.6	i	·
CCCCCCCC(=O)Nc1cc(C(=O)NCc2ccc(C)cc2)ccc1N1CCC2(CC1)CC(c1cccc(Br)c1)=NO2	2.2	·	2.4	0.71	-4.2	i	0.7
COc1cccc(C(=O)Nc2cc(C)c3c(=O)oc4ccccc4c3n2)c1	3.2	·	7.8	0.75	43*	i	4.4
COc1cccc(NC(=O)CSc2nncn2N)c1	-3.3	1%	5.5	0.79	·	·	3.0
Cn1c(Cn2nnc3ccccc32)nnc1SCC(=O)Nc1nccs1	2.8	1%	-1.5	0.71	-6.6	i	4.1
Cc1ccc2occ(/C=N/NC(=O)c3ccccc3O)c(=O)c2c1	?	·	7.1	·	0.9	·	·
CCOc1ccc2oc(-c3ccccc3)c(C(=O)N(C)C)c2c1	1.8	0%	6.4	0.66	-16	i	-33
CCOC(=O)c1cccc(NC(=O)CSc2nnc(-c3ccoc3C)n2CC)c1	-2.0	-5%	0.1	0.72	·	·	1.2
CCN(C(=O)COC(=O)c1c(-c2ccccc2)noc1C)c1c(N)n(Cc2ccccc2)c(=O)[nH]c1=O	1.3	·	0.1	0.72	1.2	i	1.3
COc1ccc(Oc2ccc(C(F)(F)F)cc2N)cc1	-1.5	-7%	-2.9	0.62	0.2	i	3.5
C[C@H](CO)N1C[C@H](C)[C@H](CN(C)C(=O)NC2CCCCC2)Oc2cc(-c3cccnc3)ccc2S1(=O)=O	·	-6%	-1.1	·	-8.7&-2.8&0.8	i	·
Nc1ccn([C@@H]2O[C@H](C(=O)Nc3ccc(Oc4ccccc4)nc3)[C@@H](O)[C@H]2O)c(=O)n1	·	·	-1.4	·	-4.2	i	·
COc1cccc(-c2nc(-c3ccc4c(c3)NC(=O)CO4)cs2)c1	0.3	-18%	1.4	0.68	-0.1	i	-0.4
O=C(Cn1ncc2c([nH]c3ccccc32)c1=O)Nc1cccnc1	2.0	-2%	-0.1	0.69	-7.1	i	0.5
COc1cc(C(=O)OCC(=O)NC(=O)NCc2ccccc2)ccc1OC(F)F	·	·	-1.8	0.7	-0.7	i	1.6
Cc1ccccc1OCc1nc2ccccc2[nH]1	5.6	-8%	0.8	0.59	-0.6	·	3.3
c1ccc(CN(Cc2ccccc2)c2c3c(nc4ncnn24)CCC3)cc1	1.0	-2%	-2.6	0.63	0.4	i	1.3
C=CCSC1=C(C#N)C(c2cc(Br)c(O)c(OC)c2)CC(=O)N1 (stereo not drawn)	-0.4	7%	1.1	0.74	?	i	1.2
CCOc1ccc(N(CC(=O)NCCSCc2ccc(C)cc2)S(C)(=O)=O)cc1	4.4	·	2.2	0.66	-3.6	i	0.6
CCn1cc(C(=O)N[C@@H](C)C(=O)NCCO)c(=O)c2cc3c(cc21)OCO3	3.7	-7%	-1.3	0.63	-1.0	i	-12
Cc1ccc2c(c1)N(C(=O)CCC(=O)NCc1cccc(F)c1)CCO2	-1.9	·	-2.4	0.76	3.0	i	6.1
COc1ccc(OCCSc2nc3nc(C)cc(C)n3n2)cc1	1.9	·	-1.9	0.65	-0.8	i	0.2
COc1ccc(OC)c(C(O)c2ncc(-c3cccc(C(F)(F)F)c3)[nH]2)c1 (stereo not drawn)	·	·	1.1	·	6.9	i	·
Cc1ccc(OCC(=O)Nc2c(C)nn(-c3ccccc3)c2C)c(Br)c1	·	-8%	-0.7	0.62	0.3	i	1.3
Cc1ccc(NC(=O)CN2CCCC2c2cccn2C)cc1C (stereo not drawn)	·	10%	-0.7	0.63	8.3	i	2.8
Cc1ccsc1C(=O)N1CCCC(C)(C(=O)NS(=O)(=O)C2CC2)C1 (stereo not drawn)	·	·	0.2	·	1.2	i	·
CCCS(=O)(=O)NCc1cn2c(C)csc2n1	-0.7	>100µM*	6.0	0.78	10	i	3.5
